Bioassay records: PubChem BioAssay, National Center for Advancing Translational Sciences (NCATS)
StopGo reporter = High Throughput Screening for Foot and Mouth Disease Virus Antivirals; human cells with a luciferase reporter of 2A StopGo recoding; control for the full effect not named in the record; Potency, µM (series often up to 57.9 µM), without a hit: at the top dose signal change, negative = less light; 1.2% of 410,000 active; AID 1159524, 2015; active = well fitted falling curve with a large enough effect; inconclusive = small, poorly fitted or top-dose-only effect; inactive = no such curve, though single readings can be large or run the other way; tested in HEK293T cells; also: % is scaled to controls: 0 for no effect and ±100 for the full control effect; nearly all actives have a fitted effect of over 45% in size; luciferase light after 4 h
Cruzain noTriton = qHTS Assay for Promiscuous and Specific Inhibitors of Cruzain (without detergent); Cruzipain (Trypanosoma cruzi), P25779; purified cruzain, Z-FR-AMC fluorescence, no detergent; Potency, µM, for the others: max response, negative = inhibition, most hits filed as inhibitors; 2.3% of 200,000 active; AID 1476, 2009;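 also: plate controls were enzyme without inhibitor for no effect and buffer without enzyme for full effect; nearly all actives have a fitted effect of over 40% in size; top concentration of the series not given in the record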
Target sequence (P25779 123-467 limits assumed): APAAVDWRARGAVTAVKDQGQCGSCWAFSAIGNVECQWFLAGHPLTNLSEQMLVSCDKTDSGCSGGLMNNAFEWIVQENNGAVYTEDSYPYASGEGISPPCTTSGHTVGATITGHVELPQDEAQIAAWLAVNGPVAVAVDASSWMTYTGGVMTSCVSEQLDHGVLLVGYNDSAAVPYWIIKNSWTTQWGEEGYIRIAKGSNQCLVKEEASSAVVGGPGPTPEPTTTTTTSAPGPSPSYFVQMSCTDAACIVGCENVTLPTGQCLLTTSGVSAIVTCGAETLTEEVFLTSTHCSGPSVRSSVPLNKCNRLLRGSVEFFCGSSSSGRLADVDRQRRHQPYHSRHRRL
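Purified cruzain at 1.5 nM, pre-incubated 15 min with compound at room temperature in 100 mM sodium acetate pH 5.5, 5 mM DTT, 0.00005% Triton X-100. Reaction started with 2 uM Z-FR-AMC; AMC fluorescence increase over 60 s gives rate.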
Lassa entry inh = qHTS for Inhibitors of binding or entry into cells for Lassa Virus; Potency, µM (doses to about 37.9 µM), without a hit: at the highest dose activity change, negative = inhibition, usual class: inhibitors; Lassa virus pseudotype entry inhibition, cell reporter; control for the full effect not named in the record; 1.2% of 300,000 active; AID 540256, 2011; active means well fitted inhibition curve with a large enough effect; inconclusive means small, poorly fitted or top-dose-only effect, or effect the other way; inactive means flat fitted curve, though single readings scatter; tested in HEK293 cells; also: % is scaled to controls: 0 for no effect and ±100 for the full control effect; nearly all actives have a fitted effect of over 50% in size; luciferase read-out
NS1 inh = qHTS Assay for Inhibitors of Influenza NS1 Protein Function; S. cerevisiae slowed by influenza A NS1, growth recovery by OD600; Potency, µM (titrated, usually from 46.1 µM), inactives show at the top dose activity, positive = more growth; 0.4% of 270,000 active; AID 2326, 2010; active means well fitted rising curve with a large enough effect; inconclusive means small, poorly fitted or top-dose-only effect; inactive means no such curve, though single readings can be large or run the other way; also: nearly all actives have a fitted effect of over 50% in size
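Read-out: OD600 growth recovery of NS1-expressing budding yeast. Cells grown overnight at 30C in -URA glucose medium, washed, resuspended and diluted 1:100 in 2% galactose assay medium, pH 6.0. Same strain lacking NS1 served as positive control.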
Cruzain inh Det = qHTS Assay for Promiscuous and Specific Inhibitors of Cruzain (with detergent); Cruzipain (Trypanosoma cruzi), P25779; purified cruzain, Z-FR-AMC fluorescence, 0.01% Triton; Potency, µM, for the others: max response, negative = inhibition, usual class: inhibitors; 0.43% of 200,000 active; AID 1478, 2009;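 also: plate controls were neutral wells for no effect and buffer without enzyme for full effect; nearly all actives have a fitted effect of over 40% in size; top concentration of the series not given in the record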
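Sodium acetate buffer (100 mM, pH 5.5) containing 5 mM DTT and 0.01% Triton X-100 hosted 1.5 nM cruzain and test compound for 15 min at room temperature. Cleavage of 2 uM Z-FR-AMC was then tracked by fluorescence.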
RE007 growth inh = qHTS Assay for Inhibitors of the HIV-1 protein Vpr | S. pombe RE007 Vpr strain, BacTiter-Glo ATP luminescence, 24 h; control for the full effect not named in the record | Potency, µM (top dose mostly 92.2 µM), inactives show at the top dose activity change, negative = less growth | 0.21% of 360,000 active; active = well fitted falling curve with a large enough effect; inconclusive = small, poorly fitted or top-dose-only effect; inactive = no such curve, though single readings can be large or run the other way;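 also: % is scaled to controls: 0 for no effect and ±100 for the full control effect; nearly all actives have a fitted effect of over 50% in size; the assay follows cell death caused by Vpr and the record does not say whether a fall means rescue or toxicity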
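Fission yeast RE007 carrying one integrated HIV-1 vpr copy, seeded at OD 0.01 in PMG+AL medium with 23 nL pinned compound. Grown 24 h at 30 degrees; viability read by BacTiter-Glo luminescence after 5 min.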
SARS PLpro yeast = qHTS of Yeast-based Assay for SARS-CoV PLP | S. cerevisiae expressing SARS-CoV PLpro, growth rescue; control for the full effect not named in the record | Potency, µM (series often up to 32.9 µM), inactives show top-dose activity, positive = growth rescue | 0.19% of 330,000 active; active means well fitted rising curve with a large enough effect; inconclusive means small, poorly fitted or top-dose-only effect; inactive means no such curve, though single readings can be large or run the other way; also: 0% is about no effect; nearly all actives have a fitted effect of over 55% in size; growth read by luminescence after 48 h
MARV entry inh = qHTS for inhibitors of binding or entry into cells for Marburg Virus | Marburg virus pseudotyped entry inhibition, cell reporter; control for the full effect not named in the record; about a third of the inactives were read at about 46 µM | Potency, µM (doses to about 37.8 µM), without a hit: top-dose activity change, negative = inhibition, usual class: inhibitors | 1.8% of 300,000 active | AID 540276, 2011; active = well fitted inhibition curve with a large enough effect; inconclusive = small, poorly fitted or top-dose-only effect, or effect the other way; inactive = flat fitted curve, though single readings scatter; tested in HEK293 cells; about a fifth of its hits are not listed in these tables; also: % is scaled to controls: 0 for no effect and ±100 for the full control effect; luciferase read-out
Numbers without * were called inactive; u = inconclusive; x = no result given; & = joins results of further samples; [ ] = dose if it differs, or a comment. Unless noted, calls follow the shape of the dose curve; as a rule, active = well fitted curve in the direction sought with a large enough effect; inconclusive = small, poorly fitted or top-dose-only effect, or another doubt; inactive = no such curve, though single readings can be large; an effect the other way counts as inactive or inconclusive. Potency is read from the fitted curve at half-maximal effect.

canonical_smiles	StopGo reporter	Lassa entry inh	RE007 growth inh	MARV entry inh	NS1 inh	Cruzain inh Det	SARS PLpro yeast	Cruzain noTriton
COc1ccc(NS(=O)(=O)c2ccc3c(c2)oc(=O)n3C)c(OC)c1	-12%	x	0%	-4%	-7%	5.1%	10%	-7%
Cc1ccc(-c2csc(/C=C3/SC(C)C(=O)N3CC(=O)Nc3ccccc3F)n2)cc1 (stereo unspecified)	-13%	-10%[46.1 µM]	-5%	u	x	x	x	x
Cn1ccnc1SCC(=O)c1ccc(OC(F)F)cc1	24%	1%	6%	u	1%	x	6%	x
O=C(CSCc1cc(=O)n2ccsc2n1)Nc1ccc(F)cc1	4%	x	3%	x	1%	x	0%	x
COc1ccc(N/C=C/C(=O)c2ccc(OC)c(OC)c2)cc1	49%[activator]	-17%	u	-3%[46.1 µM]	-30%	x	-2%	x
O=C(CN1C(=O)NC(c2ccccc2)(c2ccccc2)C1=O)NCCc1ccc(F)cc1	-19%	-6%[46.1 µM]	-14%	u	x	x	-6%	x
CCOC(=O)CCNC(=O)Nc1cc2nc(C)n(Cc3cccc(Cl)c3)c2nc1C	-4%	-19%[46.1 µM]	2%	u	5%	x	3%	x
O=C(O)Cn1c(Cc2ccccc2)nc2ccccc21	2%	u	-16%	9%[46.1 µM]	8%	x	1%	x
Cc1ccc(-c2csc(NC(=O)CSc3nc4ccccc4[nH]3)n2)cc1	u	u	0%	-29%	29%	-9.5%	-4%	-16%
CCn1nnnc1-c1ccc(OC)c(S(=O)(=O)N2CCCCC2)c1	-21%	10%	12%	-1%	1%	2.4%	-6%	-2%
CCOC(=O)c1c(-c2ccccc2)c(C(C)=O)c(=O)n(C)c1C	-25%	x	-8%	x	u	0.3%	0%	-8%
CCN(CC)CCOC(=O)c1ccc(Cl)cc1Cl	-4%	32%[46.1 µM]	-12%	27%[46.1 µM]	4%	x	0%	x
CC1CCCCC1NC(=O)CN1C(=O)c2cccc(N)c2C1=O (stereo unspecified)	5%	1%	7%	15%[46.1 µM]	4%	x	1%	x
COc1cc(NC(=O)CCc2c(C)nn(-c3ccc(N4CCCCC4)nn3)c2C)cc(OC)c1OC	4%	1%[46.1 µM]	x	x	x	-2.0%	x	u
NCCOc1ccc(C2CCCCC2)cc1	6%	2%	-1%	u	x	x	-5%	x
O=C(NNC(=O)C1CCN(S(=O)(=O)c2cccc(C(F)(F)F)c2)CC1)C1CC1	-13%	-7%	-11%	-3%[46.1 µM]	1%	x	-1%	x
Cn1c(=O)c2c(nc(Sc3ncccn3)n2Cc2ccccc2Cl)n(C)c1=O	-26%	-28%	6%	-1%	0%	1.9%	2%	-5%
O=C(Cc1cccs1)Nc1ccc2c(c1)C(=O)OC2	x	u	8%	u	-2%	1.2%	-2%	-5%
COc1ccc(CCNC(=O)CO/N=C/c2cc3c(cc2Br)OCO3)cc1OC	-23%	-8%	-9%	u	x	x	-6%	x
CCCCCOc1cccc(C2C(C(=O)c3cccs3)=C(O)C(=O)N2CCN2CCOCC2)c1 (stereo unspecified)	52%[activator]	-2%	-23%	15%	x	x	x	x
Cc1ccc(CS(=O)(=O)CCC(=O)NCCC2=CCCCC2)cc1	-9%	u	4%	-28%	x	x	0%	x
Cc1ccc(-c2cc(=O)c3cc(F)ccc3[nH]2)cc1	35%[activator]	15%	1%	-22%	11%	-0.3%	u	-6%
COc1cccc(C(CC(=O)NCC2CCCO2)NS(=O)(=O)c2ccc(C)cc2)c1OC (stereo unspecified)	-6%	-2%	22%	18%	-2%	4.0%	5%	6%
CC1CCCC(C)N1CCNC(=O)Cn1nc(-c2ccccc2)ccc1=O (stereo unspecified)	-11%	5%	-6%	-4%	-10%	-1.4%	2%	-11%
COc1ccc(C(=O)/C=C/c2ccc(OC)c(Cn3nnc4ccccc43)c2)cc1	13µM*	u	26%	u	19%	-3.5%	21%	8%
COc1ccc(CCNS(=O)(=O)c2ccc(Br)s2)cc1	24%	-26%[46.1 µM]	5%	-13%[46.1 µM]	-19%	x	-2%	x
CS(=O)(=O)NCCCc1ccccc1	-14%	1%	-7%	4%	10%	-0.8%	18%	-2%
Cc1ccc(S(=O)(=O)N2CCOCC2)cc1NC(=O)Cn1nc(C)c([N+](=O)[O-])c1C	-23%	7%	-2%	14%	x	x	0%	x
Cc1ccc(S(=O)(=O)NC(CN2CCOCC2)=NCCNS(=O)(=O)c2ccccc2)cc1	34%[activator]	2%	1%	-3%	-1%	4.6%	3%	19%
CCOCCCn1c(C)nc2c(c1=O)c1nc3ccccc3nc1n2-c1ccc2c(c1)OCCO2	-15%	-1%	-7%	1%	3%	x	1%	x

Complete entries from above.
`COc1cc(NC(=O)CCc2c(C)nn(-c3ccc(N4CCCCC4)nn3)c2C)cc(OC)c1OC` is listed as StopGo reporter: 4%; Lassa entry inh: 1%[46.1 µM]; RE007 growth inh: x; MARV entry inh: x; NS1 inh: x; Cruzain inh Det: -2.0%; SARS PLpro yeast: x; Cruzain noTriton: u
`COc1ccc(CCNS(=O)(=O)c2ccc(Br)s2)cc1` is listed as StopGo reporter: 24%; Lassa entry inh: -26%[46.1 µM]; RE007 growth inh: 5%; MARV entry inh: -13%[46.1 µM]; NS1 inh: -19%; Cruzain inh Det: x; SARS PLpro yeast: -2%; Cruzain noTriton: x

(continued)
canonical_smiles	StopGo reporter	Lassa entry inh	RE007 growth inh	MARV entry inh	NS1 inh	Cruzain inh Det	SARS PLpro yeast	Cruzain noTriton
CC(C)CN1C=C2C(=O)C(C)(OC(=O)C3CCCC3)C(=O)C=C2C=C1c1ccsc1 (stereo unspecified)	5%	x	17%	x	7%	x	-2%	x
Cc1ccc(CS(=O)(=O)Cc2ccc(C(=O)NC3CCCC3)o2)cc1	12%	x	-9%	x	0%	x	-2%	x
CC(C)NC(=O)c1ccc(COc2ccc(C(C)(C)C)cc2)o1	-19%	u	-18%	u	-36%	x	-8%	x
COC(=O)c1ccc2c(=O)n(CCCCCC(=O)O)c(=S)[nH]c2c1	u	u	-6%	-12%	-2%	-1.4%	u	4%
Cc1ccc(C(C)C)c(OCCCN2CCc3ccccc3C2)c1	-19%	x	-22%	x	-37%	x	3%	x
COCCNC(=O)CN(C(=O)CCC(=O)Nc1ccccn1)c1ccc(C)cc1C	-10%	x	20%	x	1%	x	-4%	x
CCN(Cc1cc2ccc(C)cc2[nH]c1=O)C(=O)c1ccncc1	x	x	x	x	5%	-0.1%	2%	4%
CCOC(=O)C1CCCN(S(=O)(=O)c2ccc(Br)c(OC)c2)C1 (stereo unspecified)	-5%	-25%	22%	u	-7%	-4.2%	-13%	0%
COc1ccc(NC(=O)CSc2nc(C3CC3)nc3ccccc23)cc1	1%	u	-3%	u	2%	x	-1%	x
O=C(COc1ccc2ccccc2c1)N1CCN(CC2CC3C=CC2C3)CC1 (stereo unspecified)	u	u	-18%	u	-7%	4.8%	-1%	1%
O=C1CCc2cc(NS(=O)(=O)c3ccc(F)cc3)cc3c2N1CC3	24%	-22%	7%	1%	x	x	-4%	x
C=C(C)CC1(CC)C(=O)NC(=S)NC1=O	3%	18%[46.1 µM]	11%	7%[46.1 µM]	x	x	x	x
Cc1nc2c(=O)[nH]c(=S)[nH]c2[nH]c1=O	-2%	3%[46.1 µM]	11%	u	x	x	x	x
O=C(CCC1N=C2c3ccccc3N=C(SCc3ccc(F)cc3)N2C1=O)NCc1cccs1 (stereo unspecified)	-18%	u	x	x	x	-2.8%	x	28%
O=C(Nc1nc2ccccc2s1)c1ccc(N2CCCCC2)c([N+](=O)[O-])c1	-50%	u	-14%	u	19%	-2.8%	u	u
O=C(COC(=O)C1=COCCO1)Nc1ccccc1	20%	u	-11%	u	x	x	-1%	x
Cc1c(CCOC(=O)CC23CC4CC(CC(C)(C4)C2)C3)sc[n+]1CC(=O)c1ccccc1	28µM*	x	29%	x	0%	x	0%	x
Cc1[nH]c2ccccc2c1C(=O)COC(=O)Cn1c(C(F)(F)F)nc2ccccc21	-18%	-8%	13%	-1%	2%	-9.7%	-17%	u
O=C1CSC2N1CCNC21CCCCC1 (stereo unspecified)	-6%	0%	-1%	0%	-4%	3.8%	0%	4%
C[n+]1ccc(-c2ccncc2)cc1	-2%	2%	21%	u	7%	5.7%	5%	10%
C=CCc1ccc(OCc2ccc(C(=O)Nc3ccc(NC(C)=O)cc3)o2)c(OC)c1	20%&10%	u	7%	u	8%	-8.2%	-4%	u
COc1cc(/C(C)=N/NC(=O)C(O)(c2ccccc2)c2ccccc2)ccc1O	-7%	-1%	u	6%[46.1 µM]	2%	x	2%	x

Part of the list above, reformatted.
> Cc1[nH]c2ccccc2c1C(=O)COC(=O)Cn1c(C(F)(F)F)nc2ccccc21
- StopGo reporter: -18%
- Lassa entry inh: -8%
- RE007 growth inh: 13%
- MARV entry inh: -1%
- NS1 inh: 2%
- Cruzain inh Det: -9.7%
- SARS PLpro yeast: -17%
- Cruzain noTriton: u

> O=C1CSC2N1CCNC21CCCCC1 (stereo unspecified)
- StopGo reporter: -6%
- Lassa entry inh: 0%
- RE007 growth inh: -1%
- MARV entry inh: 0%
- NS1 inh: -4%
- Cruzain inh Det: 3.8%
- SARS PLpro yeast: 0%
- Cruzain noTriton: 4%

> C[n+]1ccc(-c2ccncc2)cc1
- StopGo reporter: -2%
- Lassa entry inh: 2%
- RE007 growth inh: 21%
- MARV entry inh: u
- NS1 inh: 7%
- Cruzain inh Det: 5.7%
- SARS PLpro yeast: 5%
- Cruzain noTriton: 10%

> C=CCc1ccc(OCc2ccc(C(=O)Nc3ccc(NC(C)=O)cc3)o2)c(OC)c1
- StopGo reporter: 20%&10%
- Lassa entry inh: u
- RE007 growth inh: 7%
- MARV entry inh: u
- NS1 inh: 8%
- Cruzain inh Det: -8.2%
- SARS PLpro yeast: -4%
- Cruzain noTriton: u
